High-throughput results deposited in PubChem BioAssay by National Center for Advancing Translational Sciences (NCATS).
CRE Fsk mod – modulators of forskolin-stimulated CRE signaling in CHO cells | Potency, µM (doses to about 38.2 µM), inactives show top-dose activity change, negative = inhibition, usual class: activators | AID 662 | actives 2.5% (n = 71,000) | CHO CRE-bla reporter (cAMP response element driving beta-lactamase), forskolin EC10, beta-lactamase ratio; active = well fitted activation curve with a large enough effect in the signal ratio, with a control signal flat, not every such curve was filed as active; inconclusive = small, poorly fitted or top-dose-only effect, or effect the other way, or a change in a side signal; the % refers to the signal ratio; also: potency is read from the fitted curve at half-maximal effect; % of control where 0% means no effect
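CRE-bla CHO cells stimulated with EC10 NKH 477 (water-soluble forskolin) and compound titrations, 3 h at 37C; beta-lactamase read with CCF4 after 2 h at room temperature. Activity from 460/530 nm emission ratio, AC50 values for positive or negative modulation.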
Texas Red fluor – compound fluoresces in the Texas Red spectral region; max dye-equivalent concentration, M; actives 0.06% (n = 59,000); AID 587; Compound fluorescence, Texas Red channel, 547/618 nm; active compounds read high; in the data active = max dye-equivalent concentration above about 10 nM; inconclusive = between about 1.1 nM and that limit
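Compound titrations in 100 mM Tris pH 8.0 were incubated 15 min at room temperature and read at 547 nm excitation / 618 nm emission. Texas Red six-point standard curve on each plate converted fluorescence to dye-equivalent concentration.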
HBB splicing – hemoglobin beta splicing modulation | actives 0.06% (n = 65,000) | HBB splicing reporter cell assay, activation; EGFP reporter with mutant IVS2-654 intron; response scale: normalised to 500 nM splice-correcting PNA | AID 925 | Potency, µM (doses to about 46.1 µM), for the others: at the top dose activation, most hits filed as activators; also: potency is read from the fitted curve at half-maximal effect; 0% is about no effect
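HeLa cells stably expressing EGFP interrupted by mutant beta-globin intron 2 (IVS2-654), 500/well in 2% FCS. Treated with compound for 2 days at 37C. Splicing correction scored as total well GFP intensity (488 nm excitation, 500-520 nm emission); 500 nM antisense PNA served as control.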
Tau fil binding – binders of human tau filaments. P10636. recombinant tau filaments, thioflavin S fluorescence, 15 h; filaments grown with octadecylsulfate alongside compound. Potency, µM (titrated, usually from 57.1 µM), for the others: at the highest dose activity change, negative = inhibition. actives 2% (n = 71,000). AID 596;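 also: potency is read from the fitted curve at half-maximal effect; % is scaled to controls: 0 for no effect and ±100 for the full control effect; actives lower thioflavin S fluorescence by blocking filaments or displacing dye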
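His-tagged recombinant human tau (exons 2, 3 and 10 included), 1 uM, was induced to fibrillize by 30 uM sodium octadecylsulfate with compound present. After 15 h at 37 C, thioflavine S fluorescence (ex 450, em 510 nm) was read.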
Luciferase inh – blocks Photinus pyralis firefly luciferase activity. P08659. Potency, µM (top dose mostly 57.1 µM), inactives show at the top dose activity change, negative = inhibition, most hits filed as inhibitors. purified firefly luciferase, luminescence, 8 min. actives 2.2% (n = 72,000). AID 411; also: potency is read from the fitted curve at half-maximal effect; % is scaled to controls: 0 for no effect and ±100 for the full control effect; nearly all actives have a fitted effect of over 40% in size
Target sequence (P08659 whole entry, looked up): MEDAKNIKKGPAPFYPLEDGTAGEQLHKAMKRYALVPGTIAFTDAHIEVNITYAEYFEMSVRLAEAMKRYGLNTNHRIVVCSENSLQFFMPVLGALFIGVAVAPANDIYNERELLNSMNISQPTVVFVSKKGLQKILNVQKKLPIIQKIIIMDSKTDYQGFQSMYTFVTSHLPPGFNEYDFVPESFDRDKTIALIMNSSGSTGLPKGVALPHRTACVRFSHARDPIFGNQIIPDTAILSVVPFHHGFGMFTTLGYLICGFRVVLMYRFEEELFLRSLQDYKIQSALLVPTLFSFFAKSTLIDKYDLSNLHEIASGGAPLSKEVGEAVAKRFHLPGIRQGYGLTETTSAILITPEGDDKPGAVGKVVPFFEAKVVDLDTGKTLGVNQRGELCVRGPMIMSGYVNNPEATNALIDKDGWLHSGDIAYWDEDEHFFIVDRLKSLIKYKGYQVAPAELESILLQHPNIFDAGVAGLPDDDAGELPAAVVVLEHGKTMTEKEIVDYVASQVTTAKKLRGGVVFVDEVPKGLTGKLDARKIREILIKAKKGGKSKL
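Here, luciferase activity is measured as luminescence following an 8 min room-temperature reaction at 10 uM ATP, pH 7.2. Every library sample is titrated.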
DNA Pol III inh – blocks replication by bacterial DNA polymerase III holoenzyme | reconstituted DNA polymerase III holoenzyme replication, biochemical | Potency, µM (highest dose often 57.1 µM), inactives show top-dose activity change, negative = inhibition | actives 0.25% (n = 71,000); also: potency is read from the fitted curve at half-maximal effect; % is scaled to controls: 0 for no effect and ±100 for the full control effect
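Reconstituted *E. coli* holoenzyme (0.35 nM Pol III, 1 nM beta, 154 nM SSB, 2 nM primase) was preincubated with compound for 15 min at RT. Synthesis on 1.4 nM ssM13Gori ran 35 min, then was stopped with PicoGreen/EDTA and read as dsDNA fluorescence.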
15-hLO inh – inhibitors of human 15-lipoxygenase (ALOX15); P16050; actives 1.4% (n = 74,000); purified 15hLO-1, xylenol orange hydroperoxide absorbance; Potency, µM (series often up to 57.1 µM), for inactives: at the top dose activity change, negative = inhibition, usual class: inhibitors; also: potency is read from the fitted curve at half-maximal effect; % is scaled to controls: 0 for no effect and ±100 for the full control effect; nearly all actives have a fitted effect of over 55% in size
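40 nM 15hLO-1 + cpd, 15 min RT; start w/ 50 uM AA (final), 6 min RT; stop/detect w/ 200 uM XO + 300 uM Fe(II) in 50 mM H2SO4, 30 min; A573/A405. Buffer 25 mM Hepes pH 7.5, 0.01% Triton X-100. No-enzyme wells as negative control.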
ERK AVP block – vasopressin-driven ERK pathway inhibition. Potency, µM (series often up to 57.5 µM), without a hit: at the highest dose activity, negative = inhibition, usual class: inhibitors. HEK293-V1b, vasopressin-stimulated pERK AlphaScreen. actives 0.99% (n = 72,000); also: potency is read from the fitted curve at half-maximal effect; % is scaled to controls: 0 for no effect and ±100 for the full control effect; nearly all actives have a fitted effect of over 55% in size
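Phosphorylated ERK1/2 detected via AlphaScreen bead proximity in lysates of V1b-expressing HEK293 cells given 25 nM vasopressin for 5 min after 30 min compound exposure (37 °C). AC50 from Hill equation; basal DMSO 0%, vasopressin 100%.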
Rhodamine fluor – compound autofluorescence in rhodamine spectral region | AID 594 | actives 0.05% (n = 59,000) | Rhodamine-region fluorescence, 547/598 nm, Tris buffer; active compounds read high | max dye-equivalent concentration, M; in the data active = max dye-equivalent concentration above about 11 nM; inconclusive = between about 1.1 nM and that limit
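A six-point rhodamine series on each plate calibrates the signal. Compounds sit in 100 mM Tris (pH 8.0) for 15 min at ambient temperature before imaging through 547 nm/598 nm filters.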
Active calls of the source: *; i = inactive; ? = inconclusive; nt = not tested or not shown; [ ] = dose if it differs, or a comment. Unless noted, calls follow the shape of the dose curve; as a rule, active = well fitted curve in the direction sought with a large enough effect; inconclusive = small, poorly fitted or top-dose-only effect, or another doubt; inactive = no such curve, though single readings can be large; an effect the other way counts as inactive or inconclusive. A portion of the library. The share of hits here may be higher or lower than overall.

SMILES	CRE Fsk mod	Texas Red fluor	HBB splicing	Tau fil binding	Luciferase inh	DNA Pol III inh	15-hLO inh	ERK AVP block	Rhodamine fluor
Cc1ccccc1Cn1c(=O)n(Cc2ccco2)c(=O)c2ccccc21	?	i	1.4%	108%	-1%	-1%	-1%	-5%	i
COc1ccc(S(=O)(=O)N2CCCCC2)cc1Br	?	?	2.6%	-1%	0%	2%	7%	-16%	i
Cc1ccc(OCc2nnc(SCC(=O)Nc3ccc4c(c3)OCO4)n2C)cc1	-7%	?	nt	-9%	-2%	-6%	-4%	13%	i
CCn1c(Cc2ccccc2)nnc1SCC(=O)Nc1ccc(S(N)(=O)=O)cc1	?	?	0.8%	12%	-1%	6%	5%	-5%	i
CN(Cc1nc(-c2ccccn2)no1)S(=O)(=O)c1ccccc1	4%	i	-1.2%	3%	0%	-2%	4%	-8%	i
Cc1cc(=O)n(CC=C(Cl)Cl)c2ccccc12	16%	i	nt	13%	1%	-5%	-6%	-4%	i
CC(c1ccccc1)C1CC(=O)N(Cc2ccco2)C1=O (stereo not drawn)	-4%	?	-0.7%	-5%	0%	-4%	4%	-10%	i
CCNC(=O)NC(=O)COC(=O)CNC(=O)COc1ccccc1	-1%	i	0.1%[57.5 µM]	-2%	3%	?	2%	-7%	i
O=C(Cn1c(=O)n(Cc2ccco2)c(=O)c2ccccc21)Nc1cccc(Cl)c1	2%	nt	-0.3%	i	2%	2%	-25%	-9%	nt
O=S(=O)(Nc1ccc2c(c1)OCCO2)c1ccc2oc3ccccc3c2c1	?	i	-0.3%	33%	5%	2%	-19%	-18%	i
CCC1CCCCN1C(=O)Nc1cccc(NC(=O)N2CCCCC2CC)c1 (stereo not drawn)	-19%	?	-0.5%	2%	-6%	-7%	-5%	-16%	i
O=C(O)c1ccc(NS(=O)(=O)c2ccc3c(c2)OCCO3)cc1	-1%	nt	1.6%	5%	1%	5%	6%	nt	nt
CC1=C(C(=O)Nc2cc(C)ccn2)C(c2ccc(C)cc2)C2=C(CCCC2=O)N1 (stereo not drawn)	?	i	0.1%	nt	0%	-3%	-6%	9%	i
C1CN(c2nc3nonc3n3nnnc23)CCO1	4%	?	7.9%[57.5 µM]	13%	0%	2%	6%	-2%	i
CCOC(=O)C1CCN(Cc2ccc(OC)c(C)c2OC)CC1	?	nt	-1.3%[0.0738 µM]	3%[11.4 µM]	-5%	-6%[11.4 µM]	-6%[11.4 µM]	-5%	nt
COc1cc2c(cc1OC)C(=O)N(C)CC2	16µM*	i	nt	?	-2%[11.4 µM]	-3%	-4%[25.6 µM]	-20%	i
CCOC(=O)CSc1nnc(CSc2nc(C)cc(C)n2)n1Cc1ccco1	?	i	-0.6%	-8%	3%	-1%	-6%	13%	i
Cc1sc2ncn(CC(=O)NCCCC(=O)N3CCN(c4ncccn4)CC3)c(=O)c2c1C	-4%	i	0.6%	10%	3%	0%	7%	34%[activator]	i
Cc1nn(-c2ccc3nnc(Br)n3n2)c(C)c1Br	?	i	-2.4%	-2%	-7%	-1%	-24%	-14%	i
c1coc(Cn2nnnc2CN2CCN(C3CCCCC3)CC2)c1	-5%	i	-1.4%	2%	-7%	-1%	1%	19%	i
O=C1CCCC(O)=C1C=Nc1ccc2c(c1)oc1ccccc12	-1%	i	nt	-6%	-8%	1%	-7%	-10%	i
CCc1nc(N2CCCCC2)c2oc3ccccc3c2n1	7.9µM*	i	2.7%[57.5 µM]	6%	-2%	1%	-18%	-8%	i
COCCn1c(=NC(=O)CSCC(=O)Nc2cc(C)on2)sc2cc(C(=O)OC)ccc21	?	i	1.5%	2%	-1%	0%	6%	4%	i
O=c1[nH]n(CC2COC3(CCCCC3)O2)c(=O)c2ccccc12 (stereo not drawn)	?	i	nt	6%	-2%	-2%	-12%	-7%	i
Cc1ccc2[nH]c(=O)c(-c3noc(C(C)C)n3)cc2c1	5%	nt	-0.6%	18%	-3%	-5%	-3%	nt	nt
CCOc1cc(C)c(Cl)cc1S(=O)(=O)NCc1ccc2c(c1)OCO2	-12%	i	1.7%	-5%	3%	4%	-5%	8%	i
CSc1ccc2[nH]c(=O)cc(C)c2c1	?	?	-1.5%	1%	0%	2%	-16%	-3%	i
CC(C)c1nc(N2CCN(C(=O)c3ccco3)CC2)c2c3c(sc2n1)CCCC3	?	i	0.7%	9%	1%	-4%	?	?	i
N[C@@H](CSC(=O)c1ccccc1)C(=O)O	10%[7.6 µM]	?	3.0%[9.22 µM]	-3%[11.4 µM]	2%[11.4 µM]	-3%[11.4 µM]	-9%[11.4 µM]	5%[11.5 µM]	i
c1ccc(OCCCc2nc(-c3ccccn3)no2)cc1	?	?	3.3%	2%	-3%	2%	2%	4%	i

Compound profiles, from the list above. Order of values: CRE Fsk mod	Texas Red fluor	HBB splicing	Tau fil binding	Luciferase inh	DNA Pol III inh	15-hLO inh	ERK AVP block	Rhodamine fluor
Cc1ccc2[nH]c(=O)c(-c3noc(C(C)C)n3)cc2c1 across the screens: 5%	nt	-0.6%	18%	-3%	-5%	-3%	nt	nt
COCCn1c(=NC(=O)CSCC(=O)Nc2cc(C)on2)sc2cc(C(=O)OC)ccc21 across the screens: ?	i	1.5%	2%	-1%	0%	6%	4%	i

Remaining list, next part
SMILES	CRE Fsk mod	Texas Red fluor	HBB splicing	Tau fil binding	Luciferase inh	DNA Pol III inh	15-hLO inh	ERK AVP block	Rhodamine fluor
Cc1cc(C)nc(SCC(=O)Nn2cnnc2)n1	-3%	i	-1.0%	-5%	2%	0%	6%	-9%	i
COc1cccc2[nH]c(-c3ccccn3)nc12	-2%[7.6 µM]	i	4.8%[9.22 µM]	5%[11.4 µM]	3.2µM*	-5%[11.4 µM]	59%[activator][11.4 µM]	-9%[11.5 µM]	i
Cc1cc(/N=C/C=C2\N(C)c3ccccc3C2(C)C)n(CCC#N)n1	22%	?	-0.3%[57.5 µM]	?	-15%	-1%	-26%	-15%	i
Cc1nc(N2CCN(Cc3nc4ccccc4[nH]3)CC2)c2oc3ccccc3c2n1	7.9µM*	i	-0.6%[57.5 µM]	30%	2%	8%	-7%	?	i
COC(=O)c1ccc2c(c1)N(Cc1nc(-c3cccc(C)c3)oc1C)C(=O)C1CCCN21 (stereo not drawn)	4µM*	nt	0.1%	131%	-5%	-10%	-7%	-17%	nt
O=C(c1nc(-c2ccccc2)n(-c2ccccc2)n1)N1CCCCCC1	0%	i	-1.6%	3%	-1%	-3%	-5%	14%	i
CC1=C(C(=O)Nc2ccccn2)C(c2cccnc2)n2nnnc2N1 (stereo not drawn)	-3%	i	-0.9%	0%	1%	5%	10%	-18%	i
COc1cc(S(=O)(=O)N2CCOCC2)ccc1NC(=O)COC(=O)C12CC3CC(CC(C3)C1)C2	-1%	?	-4.4%	-3%	-37%	1%	1%	-7%	i
COc1cc(OC)cc(C(=O)N2CCC(n3c(C)nc4cc(F)ccc43)CC2)c1	?	?	nt	10%	4%	-4%	12%	?	i
CCOC(=O)C1CCN(Cc2cn[nH]c2-c2ccc(C)cc2)CC1	?	i	-1.1%	-6%	1%	-5%	-11%	-18%	i
CC(C1CC1)N(C(=O)c1ccccc1O)c1ccccc1 (stereo not drawn)	-3%	nt	0.3%	1%	-5%	-5%	-2%	-13%	nt
Cc1cnn(C(=S)NCc2ccco2)c1	5%	i	-0.8%	0%	-1%	-3%	-24%	-6%	i
O=C(O)CN1C(=O)CC(Cc2ccccc2)C1=O (stereo not drawn)	16%	i	2.4%	-13%	-1%	4%	-6%	-7%	i
O=C1[C@@H]2C=CC=CC2=NC(=S)N1CCN1CCC(=C(c2ccc(F)cc2)c2ccc(F)cc2)CC1	-9%	i	0.4%	146%	1%	-2%	-29%	-1%	i
C=CCC1CCCCC12NC(=O)NC2=O (stereo not drawn)	1%	nt	-0.1%[9.22 µM]	-2%	3%	3%	-3%	57%[activator]	nt
O=C1OC(c2ccc(Br)cc2)=N/C1=C\N1CCCCC1	16%	i	-3.3%	-3%	-6%	-8%	-14%	-3%	i
c1ccc2[nH]c(NC3=NCCC3)nc2c1	?	i	1.2%	-3%	-5%	-5%	35%[activator]	-23%	i
C#CCn1c(=NC(=O)CSCC(=O)N2CCOCC2)sc2ccccc21	?	i	-2.8%	8%	0%	-10%	-4%	-11%	i
c1ccc(N(c2ccccc2)c2nc(-n3ccnc3)nc(-n3ccnc3)n2)cc1	18%	i	0.0%	129%	2%	-5%	20%	4%	i
Oc1[nH]c2ccccc2c1C=NCC1CCCO1 (stereo not drawn)	-5%	i	-0.7%	-3%	0%	5%	-27%	23%	i
COc1cc(S(=O)(=O)N2CCOCC2)ccc1NC(=O)c1cc2c(s1)CCC2	?	i	-0.1%[57.5 µM]	33%	3%	10%	9%	-12%	i
Cn1c(SCC(=O)NC2CC2)nnc1C(F)(F)F	-5%	i	0.1%	2%	4%	-4%	2%	5%	i
N#Cc1c(NC(=O)CN2CCCCC2)sc2c1CCC2	3%	i	0.8%	-8%	1%	0%	-1%	-12%	i
O=C(CSc1nc(O)cc(=O)[nH]1)C1CC1	-2%	nt	1.6%	-6%	2%	-2%	0%	3%	nt
COc1cccc(C2C(C(=O)Nc3cccnc3)=C(C)Nc3nnnn32)c1OC (stereo not drawn)	-1%	?	-0.6%	6%	1%	0%	5%	0%	i
COC(=O)CCN(C(=O)C1C2CC3CC(C2)CC1C3)c1ccccn1 (stereo not drawn)	5%	?	0.1%[57.5 µM]	-1%	3%	-3%	1%	-30%	i
